# Bioassay records deposited in PubChem BioAssay by several laboratories.
# RGS16-Gao = modulators of RGS16 binding to Galphao, primary screen, biochemical, human proteins, multiplexed bead flow cytometry | Regulator of G-protein signaling 16 (Homo sapiens) + Guanine nucleotide-binding protein … | bead-based flow cytometry RGS16-Galphao binding, fluorescence; actives lie on both sides | binding response (% of control), % at 10 µM | 0.38% of 220,000 active;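 active means below 25% or above 175%, edge rows of some plates excepted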;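 further: Galphao activated by GDP with aluminum fluoride before binding; 100% = wells without compound and 0% = beads without RGS; some results beyond the cut were filed as inactive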
# Target sequence (O15492 whole entry, looked up): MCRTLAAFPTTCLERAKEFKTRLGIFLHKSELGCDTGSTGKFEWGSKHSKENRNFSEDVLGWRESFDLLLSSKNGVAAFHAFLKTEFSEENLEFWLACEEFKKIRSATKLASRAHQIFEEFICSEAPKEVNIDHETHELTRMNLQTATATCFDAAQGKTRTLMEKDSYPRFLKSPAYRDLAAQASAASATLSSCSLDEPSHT
# Target sequence (P09471 whole entry, looked up): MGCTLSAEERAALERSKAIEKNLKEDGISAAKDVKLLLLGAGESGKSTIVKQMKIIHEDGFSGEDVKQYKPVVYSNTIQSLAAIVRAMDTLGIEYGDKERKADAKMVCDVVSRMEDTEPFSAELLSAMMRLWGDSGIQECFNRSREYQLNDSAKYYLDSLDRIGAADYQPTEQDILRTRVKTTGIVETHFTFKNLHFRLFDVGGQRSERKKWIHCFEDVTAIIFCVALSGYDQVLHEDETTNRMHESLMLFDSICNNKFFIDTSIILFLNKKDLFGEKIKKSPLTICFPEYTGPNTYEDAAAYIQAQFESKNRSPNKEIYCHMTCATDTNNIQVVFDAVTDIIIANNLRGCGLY
# Insulin prom inh = inhibitors of insulin promoter-driven GFP, primary screen, imaging, TRM-6 cells (human fetal islet line), eGFP reporter, cell count; AID 1273, 2008; reporter expression induced with tamoxifen; inhibition, % at 2 µM; 0.9% of 130,000 active;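 active means inhibition above the mean plus 3 SD, with well images judged a real hit on visual review, cut at about 60% in these data, passing the limit was not always enough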
# GALR2 agonist = GALR2 receptor agonists, primary screen, cell-based; Galanin receptor type 2 (Homo sapiens), O43603; GALR2-expressing cells, agonist activation read-out; activation, %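 (tested at 5 µM)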; 0.48% of 140,000 active; AID 803, 2007;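 active means above mean plus 3 SD of all compounds, about 5% in these data, not always enough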;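 further: 0% = vehicle buffer wells and 100% = reference agonist at full effect; tested in CHO reporter cells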
# Target sequence (O43603 whole entry, looked up): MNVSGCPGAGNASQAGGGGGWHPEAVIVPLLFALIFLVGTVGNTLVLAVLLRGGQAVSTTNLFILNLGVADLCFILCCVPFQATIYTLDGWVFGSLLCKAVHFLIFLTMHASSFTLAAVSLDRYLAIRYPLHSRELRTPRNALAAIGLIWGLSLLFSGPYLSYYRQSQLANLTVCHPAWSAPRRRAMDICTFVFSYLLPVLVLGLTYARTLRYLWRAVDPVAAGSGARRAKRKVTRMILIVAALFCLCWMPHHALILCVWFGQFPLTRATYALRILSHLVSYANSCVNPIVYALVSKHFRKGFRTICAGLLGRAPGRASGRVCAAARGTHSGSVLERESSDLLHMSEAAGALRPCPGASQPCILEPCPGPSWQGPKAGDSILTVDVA
# PKD1 inh = inhibitors of human PKD1 kinase, biochemical, fluorescence polarization. Serine/threonine-protein kinase D1 (Homo sapiens), Q15139. PKD1 kinase fluorescence polarization assay. inhibition, %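 (about 10 µM by stock and volumes)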. 0.056% of 200,000 active. AID 797, 2007;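 active means inhibition of 50% or more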;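 further: controls were vehicle for no effect and a reference inhibitor for full effect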
# HSV augment = enhancers of HSV replication in host cells, fold increase, host cell viability | HSV replication augmentation in cells | maximum fold increase | AID 1956, 2009 | 0.005% of 220,000 active;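 active means peak rise of 1.5-fold or more in the series; tested in PC3 cells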;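 further: first round at 10 µM; read as green reporter fluorescence; hits show the peak of a series up to 25 µM; 1 = signal of infected wells without compound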
# Insulin prom inh cell count = second read-out of Insulin prom inh, no call of its own (marks repeat the call); normalized cell count, %; measured here: cell count, toxicity; reference of the scale not given here;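 cells exposed to compound for 48 h; stained nuclei by imaging scaled within each plate; lower means fewer cells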
# HSV augment primary fold = also measured in HSV augment; calls as there; fold increase; compound at 10 µM; measured here: primary screen fold increase 10 uM; tested in PC3 cells;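 GFP signal in the first replicate; 1 = infected wells without compound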
# An asterisk follows results filed as active; i = inactive; . = not tested or not shown.
structure	RGS16-Gao	Insulin prom inh	Insulin prom inh cell count	GALR2 agonist	PKD1 inh	HSV augment	HSV augment primary fold
Cc1cc(C)nc(SCC(=O)Nc2ccccc2[N+](=O)[O-])n1	77	.	.	-1.3	13	i	0.99
O=C(N/N=C/c1ccc(Cl)cc1Cl)c1n[nH]c2c1CCCC2	111	20	68	1.0	1	i	0.62
O=C(Nc1cccc2ncccc12)C(c1ccccc1)c1ccccc1	97	.	.	.	7	i	1
CC1(C)CC2CC(C)(CN2C(=O)COC(=O)c2cc(Cl)cc(Cl)c2N)C1 (configuration not stated)	104	-16	133	-4.2	3	i	0.89
CCN(CC)S(=O)(=O)c1ccc(C(=O)NNC(=O)C2CCN(S(=O)(=O)c3ccc(Cl)cc3)CC2)cc1	104	23	99	-1.2	2	.	.
CCOc1nc(SCCOc2ccc(C)cc2)nc(N(C)C)n1	177	16	83	-1.4	-11	i	0.97
O=C(Nc1cc(F)ccc1F)N1CCN(c2ccnc3cc(Cl)ccc23)CC1	104	.	.	.	.	i	1.1
Cc1nc(SCC(=O)OCc2ccccc2)c2c(=O)n(C)c(=O)n(C)c2n1	100	.	.	.	-3	i	0.93
O=C(CCNC(=O)c1ccccc1Cl)Nc1ccc(S(=O)(=O)Nc2ncccn2)cc1	103	35	90	.	-1	i	0.9
CCN1C(=O)/C(=C2/SC(C)=C(C)N2CC)SC1=S	106	.	.	0.3	13	i	0.96
O=C(NCc1cccnc1)c1cc(-c2ccc(Cl)cc2)oc1C(F)(F)F	102	.	.	.	.	i	0.91
O=C(/C=C/c1ccccc1)NC(=S)Nc1ccc(N2CCOCC2)cc1	101	-13	70	0.7	9	i	0.69
Cc1nc(C(=O)O)nn1-c1cc(Cl)ccc1Cl	98	-29	88	.	0	i	0.98
O=[N+]([O-])c1ccc(Cc2ccncc2)cc1	108	-39	133	.	2	i	0.92
Cc1ccc(NC(=O)Nc2ccc3c(c2)nc(C)n3C)cc1	96	.	.	.	0	i	0.97
Cc1ccc(S(=O)(=O)N(CC(=O)NCc2ccco2)Cc2ccccc2F)cc1	106	-46	164	-1.4	-5	i	0.99
S=C(Nc1ccccc1Oc1ccccc1)Nc1cccc(Cl)c1Cl	103	.	.	-0.1	-3	i	1.4
NS(=O)(=O)c1ccc(CCNC(=O)NC2(C(F)(F)F)Oc3ccccc3O2)cc1	107	-8	92	-0.1	-1	i	0.68
COc1ccc(S(=O)(=O)N(CCCN2CCCC2=O)Cc2cc3c(C)ccc(C)c3[nH]c2=O)cc1	98	-68	95	-2.4	-8	i	0.93
CCOC(=O)Cc1csc(NC(=O)Nc2ccccc2)n1	103	38	161	-2.3	-4	.	.
CCN(CC(=O)NC(C)C)C(=O)CCNC(=O)c1ccc(Cl)cc1	99	.	.	-3.3	1	i	0.79
CCOC(=O)Cc1csc(N/C(=N/S(=O)(=O)c2ccc(F)cc2F)c2ccccc2)n1	102	.	.	-1.0	4	i	1.4
O=C(Nc1ccccc1O)c1ccc(Cl)cc1	93	-19	114	-1.8	-5	i	0.94
Cc1nc2sc(C(c3cccs3)N3CCN(c4cccc(Cl)c4)CC3)c(O)n2n1 (configuration not stated)	95	.	.	-1.6	-9	i	0.94
FCCCOc1ccc(-c2nccc(-c3ccc(Cl)cc3)n2)cc1	105	-13	89	-2.5	-3	i	0.91
CCOC(=O)CSc1nc(C)cc(C)c1C#N	135	i	47	-4.0	-6	i	0.94
CC(=O)N1CCN(CC(O)COc2ccc(OCc3ccccc3)cc2)CC1 (configuration not stated)	101	-5	140	-1.4	-17	i	0.92
FC(F)(F)C1=CC(c2ccc(Cl)cc2)=NCCN1	126	-19	115	-0.2	-3	i	0.84
COCCCn1c2nc3ccccc3nc2c2c(=O)n(Cc3ccc(Cl)cc3)cnc21	77	9	107	-0.8	-3	i	0.49
Cc1c(NC(=O)CSc2nc(-c3ccco3)cc(C(F)(F)F)n2)c(=O)n(-c2ccccc2)n1C	102	24	106	-2.0	-5	i	1.1

# The results go on:
structure	RGS16-Gao	Insulin prom inh	Insulin prom inh cell count	GALR2 agonist	PKD1 inh	HSV augment	HSV augment primary fold
Nc1ccc2nc(N3CCOCC3)sc2c1	101	.	.	.	0	i	1.2
O=C(Cn1c(=O)n(CC2CCCO2)c(=O)c2ccccc21)c1ccccc1 (configuration not stated)	122	13	92	-2.4	-9	i	0.95
NC(=NCCc1c[nH]c2ccccc12)NS(=O)(=O)c1ccc2ccccc2c1	102	0	141	0.0	-5	i	0.95
O=[N+]([O-])c1ccccc1-c1cc(-c2cc(Cl)ccc2O)n[nH]1	99	-45	150	-0.3	3	i	0.85
O=C(O)COc1c(Cl)cc(/C=C2\NC(=O)NC2=O)cc1Br	64	.	.	.	-3	i	0.99
Cc1ccc(-c2nn(-c3ccccc3)cc2CN(Cc2ccccc2)C(=O)CCC(=O)O)o1	88	0	131	0.7	-6	i	0.95
C/C(=N\NC(=S)NC(C)C)c1ccccc1OC(F)F	112	-100	97	.	-6	i	0.98
Cn1nc(C(=O)Nc2ccc(S(=O)(=O)N3CCOCC3)cc2)c2ccccc2c1=O	101	.	.	.	6	i	0.89
Cc1ccccc1-c1nc(C#N)c(NCc2ccco2)o1	99	-5	141	.	0	i	0.96
CCN(CC)S(=O)(=O)c1ccc(NC(=O)C(OC)c2ccccc2)cc1 (configuration not stated)	.	61	109	-0.3	3	i	1.1
COC(=O)c1sccc1NC(=S)N1CCC(C(N)=O)CC1	104	.	.	.	6	i	0.81
CN(C(=O)Nc1ccc(S(=O)(=O)N(C)C)cc1)C1CCCCC1	104	-13	63	-2.6	-1	i	0.9
Cc1cccc(NC(=O)c2ccccc2NC(=O)C(C)(C)C)n1	108	-15	133	-1.7	-8	i	0.94
O=C(Cc1ccccc1)Nc1ccccc1N1CCOCC1	100	23	134	-0.9	9	i	1.1
Cc1cc2nnc(SCC(=O)NCc3cccs3)n2c2ccccc12	100	14	94	0.8	1	i	0.55
CNc1nc2c3ccccc3n(C(C)=O)c2s1	115	57	100	0.4	3	i	0.82
Cc1ccc2[nH]ccc(=O)c2c1	101	0	97	1.0	-7	i	1.1
COc1cccc(NC(=O)Cn2c(=O)n(-c3cc(OC)c(OC)c(OC)c3)c(=O)c3ccccc32)c1	107	.	.	.	-1	i	0.87
O=C(O)c1ccc2c(c1)CC(c1ccccc1)OC2=O (configuration not stated)	101	-33	109	-1.7	-3	i	0.7
N#C/C(=N\Nc1ccc(Cl)cc1)C(=N)N1CCCCC1	95	24	62	-2.4	-12	i	0.86
CCc1ccc(Nc2c([N+](=O)[O-])c(=O)oc3ccccc23)cc1	109	.	.	.	.	i	0.82
CCn1c(SCc2nc(CC(=O)Nc3ccccc3OC)no2)nnc1-c1cccs1	100	-19	102	-2.3	-6	i	0.73
CCOC(=O)C1=C(c2ccccc2)N(C)C(=O)NC1c1ccc(O)c(OC)c1 (configuration not stated)	103	.	.	-0.6	-5	i	1.1
Cc1cc([N+](=O)[O-])nn1CCCC(=O)Nc1ccc(Cl)cc1Cl	88	.	.	.	8	i	0.96
CC(CC(=O)O)CC(=O)Nc1cc([N+](=O)[O-])ccc1O (configuration not stated)	97	.	.	.	-1	i	1
CN(Cc1ccccc1)C(=O)C1CCCN(Cc2cccc(Cl)c2)C1 (configuration not stated)	101	-93	124	.	-1	i	1
COc1ccccc1C(=O)N1CCN=C1c1ccccc1	102	-406	25	-1.4	-2	i	0.88
COc1ccc(/C=N/Nc2c(Cl)cc(Cl)cc2Cl)cc1CN1CCOCC1	106	41	82	0.4	-2	i	0.94
Cc1nc(SCC(=O)c2c[nH]c3ccccc23)n[nH]1	102	-25	90	0.2	9	i	0.89
COc1ccc(-c2csc3ncnc(Oc4cccc5ccc(C)nc45)c23)cc1	102	.	.	-1.5	-3	i	1

# 5 of these compounds, reformatted:
# Results follow in this order: RGS16-Gao	Insulin prom inh	Insulin prom inh cell count	GALR2 agonist	PKD1 inh	HSV augment	HSV augment primary fold
CNc1nc2c3ccccc3n(C(C)=O)c2s1
 : 115	57	100	0.4	3	i	0.82
Cc1ccc2[nH]ccc(=O)c2c1
 : 101	0	97	1.0	-7	i	1.1
COc1cccc(NC(=O)Cn2c(=O)n(-c3cc(OC)c(OC)c(OC)c3)c(=O)c3ccccc32)c1
 : 107	.	.	.	-1	i	0.87
O=C(O)c1ccc2c(c1)CC(c1ccccc1)OC2=O (configuration not stated)
 : 101	-33	109	-1.7	-3	i	0.7
N#C/C(=N\Nc1ccc(Cl)cc1)C(=N)N1CCCCC1
 : 95	24	62	-2.4	-12	i	0.86

# Some of the entries above in another layout:
# Fields – RGS16-Gao	Insulin prom inh	Insulin prom inh cell count	GALR2 agonist	PKD1 inh	HSV augment	HSV augment primary fold
- O=C(Cc1ccccc1)Nc1ccccc1N1CCOCC1
 : 100	23	134	-0.9	9	i	1.1
- COc1ccccc1C(=O)N1CCN=C1c1ccccc1
 : 102	-406	25	-1.4	-2	i	0.88

# Entries from the list above that have a cyano group, in the order listed:
structure	RGS16-Gao	Insulin prom inh	Insulin prom inh cell count	GALR2 agonist	PKD1 inh	HSV augment	HSV augment primary fold
CCOC(=O)CSc1nc(C)cc(C)c1C#N	135	i	47	-4.0	-6	i	0.94
Cc1ccccc1-c1nc(C#N)c(NCc2ccco2)o1	99	-5	141	.	0	i	0.96
N#C/C(=N\Nc1ccc(Cl)cc1)C(=N)N1CCCCC1	95	24	62	-2.4	-12	i	0.86

# Later entries
structure	RGS16-Gao	Insulin prom inh	Insulin prom inh cell count	GALR2 agonist	PKD1 inh	HSV augment	HSV augment primary fold
COC(=O)c1ccc(CSc2nnc(-c3ccncc3)o2)o1	98	21	105	-3.0	-1	i	1
COCC(C)n1c(SCc2cc(C(=O)OC)c(C)o2)nc2ccccc2c1=O (configuration not stated)	106	.	.	.	.	i	0.98
COc1ccc(-c2nc(C)c(C(C)=O)n2O)cc1[N+](=O)[O-]	107	0	205	.	5	i	0.94
Cc1ccc2nc(C3CCN(CC(=O)Nc4ccc5c(c4)OCCO5)CC3)[nH]c2c1	111	.	.	-1.7	-7	i	0.86
CCCS(=O)(=O)N1CCC(C(=O)NCCCOCC)CC1	97	.	.	-3.0	-7	i	0.89
Cc1c(N2CCCC2)cc2c(c1NC(=O)c1ccccc1Cl)C(C)(C)CC2(C)C	155	.	.	.	.	i	0.84
C/C(=N\NC(=O)c1cccs1)c1ccc2c(c1)OCO2	101	.	.	.	2	i	1.1
CCC(=O)NNc1nc2c(C)cccc2s1	88	47	166	.	-3	i	1.2
CCOC(=O)C1=C(C)NC(C)=C(C(=O)OCC)C1c1ccc(O)cc1	86	-14	63	-2.6	-3	i	0.75
COc1ccc(C(=O)CSc2n[nH]c(C)n2)cc1[N+](=O)[O-]	102	.	.	.	1	i	0.91
C/C(=N\NC(=O)CSc1nc(C)cc(C)n1)c1ccc2c(c1)OCCO2	108	-33	180	.	-1	i	0.95
O=C(NCCN1CCOCC1)c1cc(Cl)ccc1[N+](=O)[O-]	103	.	.	-0.2	4	i	0.95
COc1cc(C(=S)N2CCC(C(N)=O)CC2)ccc1O	98	-200	66	-2.0	-3	i	1
Cn1nc(C(F)(F)F)c(C#N)c1N1CCN(c2ccccc2)CC1	107	14	150	-1.6	-6	i	0.89
COc1ccc(-c2cc3ccccc3s2)cc1[C@H]1[C@H]2C=CC[C@@H](C)[C@@H]2C(=O)N1Cc1ccccc1	99	.	.	.	.	i	0.93
CSc1ccccc1NC(=O)CN1c2ccccc2CC1C (configuration not stated)	98	.	.	.	.	i	0.99

# Some entries already given, reduced to HSV augment, RGS16-Gao and HSV augment primary fold.
structure	HSV augment	RGS16-Gao	HSV augment primary fold
FC(F)(F)C1=CC(c2ccc(Cl)cc2)=NCCN1	i	126	0.84
COCCCn1c2nc3ccccc3nc2c2c(=O)n(Cc3ccc(Cl)cc3)cnc21	i	77	0.49
